Tgondii IFNg: blocks Toxoplasma gondii growth in the presence of IFN-gamma. 69,000 tested, 3.8% active. activity change, negative = inhibition, %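 (about 20 µM by stock and volumes)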. AID 1259416. Toxoplasma gondii growth in IFN-gamma-treated host cells; active compounds read low; reference of the scale not given here;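 active = below -70%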;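 also: host cells are HeLa cells infected with Toxoplasma gondii; parasite growth read as luciferase light; one replicate is shown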
* = called active by the depositor; i = inactive; ! = not active in a repeat. Some of the compounds tested; rates above refer to the full screens.

SMILES	Tgondii IFNg
O=C(O)C1C2C=CC(C2)C1C(=O)NC1CCS(=O)(=O)C1 (stereo not given)	10.4
Cc1ccc(S(=O)(=O)NC(=O)NC(C)Cc2ccccc2)cc1 (stereo not given)	-45.1
CCN(CC)C(=O)C1Cn2ccnc2C2(CCN(C(=O)c3cccn3C)CC2)O1 (stereo not given)	3.1
N#C[C@@H]1N[C@@H](CO)[C@H]1c1ccc(-c2cccc(F)c2)cc1	15.2
CN1CCS(=O)(=O)[C@H]2CCN(C(=O)C(C)(C)C)CC[C@@H]21	-21.0
CCCNC(=O)N1[C@H](CO)[C@H](c2ccc(-c3ccccc3F)cc2)[C@@H]1C#N	-7.3
CN(C)C(=O)CN1CCC2(CC1)OC(C(=O)NCc1ccccn1)Cn1ccnc12 (stereo not given)	-51.5
CN1CC2(CCN(C(=O)C3CCN(Cc4ccco4)CC3)C2)OC1=O (stereo not given)	0.5
CCc1ccc(-c2nccn2C(C)c2nc(C)cs2)o1 (stereo not given)	-1.8
Cc1sc2ncc(C(=O)N3CCC4(CN(C)C(=O)O4)C3)c(=O)n2c1C (stereo not given)	4.2
COc1ccc(CCN2C(=O)N(C)C(=O)C23CCN(Cc2ccccc2C(F)(F)F)CC3)cc1	-40.3
O=C(CC1Nc2c3ccccc3nc(=S)n2C1=O)N1CCN(c2cccc(C(F)(F)F)c2)CC1 (stereo not given)	-9.6
COc1ccc(N(C2CSC2)S(C)(=O)=O)cc1	33.4
CCS(=O)(=O)N1CC2(C1)CN(S(=O)(=O)c1cn(C)cn1)[C@H](CO)c1[nH]c3cc(OC)ccc3c12	58.4
Cc1cccc(C(=O)N2CC3CCC(C2)N3S(C)(=O)=O)c1	47.2
CCCOc1ccc(-c2noc(-c3c(O)c4cc(Cl)ccc4[nH]c3=O)n2)cc1	30.0
c1ccc(CN(Cc2ccccn2)Cc2cccs2)cc1	14.2
CCc1cc(C(=O)N2CCOCC2)c(NC2=NS(=O)(=O)c3ccccc32)s1	-6.3
CN(C)S(=O)(=O)c1ccc(CN)cc1	5.6
C[C@@H]1CN([C@@H](C)CO)C(=O)c2cccc(NC(=O)c3nc4ccccc4s3)c2O[C@@H]1CN(C)C(=O)Nc1ccc2c(c1)OCO2	-43.1
Cc1nn(-c2ccccc2)c2sc(C(=O)N3CCCC(N)CC3)cc12 (stereo not given)	-25.4
Cc1ccc(C(C)(C)C(=O)N2CCC(c3ccc(C(=O)Nc4nccs4)cn3)CC2)cc1	-8.6
CNc1ccnc(N2CCN(Cc3cnc(C(C)C)nc3)CC2)n1	0.4
CCn1cc(CN2CCc3c([nH]c4ccccc34)C2c2ccccc2C)c(C)n1 (stereo not given)	14.0
COc1ccc(OC)c(CN2CCN(C3CCN(C(C)C)CC3)C(CCO)C2)c1 (stereo not given)	0.5
Other entries.
SMILES	Tgondii IFNg
COc1ccc(C)cc1NC(=O)c1cncc(NS(=O)(=O)c2ccc(C)cc2C)c1	5.5
Cc1ccc2c(c1)c(=O)c(C(=O)NC1CCN(Cc3ccccn3)CC1)cn2C	-7.1
Cc1ccsc1C(=O)N1CCCC2(C1)Nc1cccnc1NC2=NC1CCCC1 (stereo not given)	-22.8
CCN1c2cc(C)ccc2-n2cccc2C12CCN(C(=O)Nc1cccc(C)c1C)CC2	-7.6
COc1ncccc1-c1cccc(-c2nnc(C)s2)c1	-94.4*
CC1CC(=O)Nc2ccccc2N1C(=O)c1ccccc1 (stereo not given)	32.9
CC(=O)NC1=NN(C(C)=O)C(C)(c2ccccc2)S1 (stereo not given)	-76.8*!
Cc1cnc(C(=O)NC2CCCN(C(=O)Cc3csc(C)n3)CC2)cn1 (stereo not given)	-15.2
COCCC1CN(Cc2cc3ccc(C)cc3[nH]c2=O)CCO1 (stereo not given)	4.4
COc1cccc(-c2cc(C(=O)Nc3nc(-c4ccccn4)cs3)on2)c1	14.2
CN(C)c1ncc2c(n1)[C@H]1CN(Cc3ccccc3)C[C@@H]1S(=O)(=O)C2	37.6
Cc1[nH]cnc1-c1c(-c2ccccc2)ncn1Cc1cnn(-c2ccccc2)c1	-14.4
O=C(c1cccc(F)c1)N1C[C@@H]2CCN(CCN3CCCC3)C[C@H]2C1	-35.1
COCC(=O)N1CCc2c([nH]c3ccccc23)C1c1ccccc1 (stereo not given)	i
O=C(CC1CC1)NCc1cn2c(n1)CN(C(=O)c1ccccn1)CC2	2.8
COc1ccc(Cl)cc1S(=O)(=O)Nc1ccc(-c2nc(-c3ccc(C)cc3C)co2)cc1	15.4
Cc1cc(=O)oc2c(O)c(O)ccc12	7.1
Cc1nn(CC(=O)NCc2ccc(F)cc2)c(=O)c2nc(-c3ccccc3)sc12	36.9
CCN1c2cc(Cl)ccc2C(=O)NC12CCN(C(=O)NCCc1ccccc1)CC2	-41.2
c1ccc(CN2CCC(NCc3ccccc3-n3ccnc3)CC2)nc1	1.4
CC(=O)NCCC(=O)Nc1ccccc1C(=O)Nc1c(C)cccc1C	102.1
CCc1ccccc1NC(=O)N1CCC2(CC1)Nc1cc(F)ccc1-n1cccc12	8.7
CCn1ccc2cc(CCC(=O)NC(C)c3ccccn3)ccc21 (stereo not given)	-69.6
COc1ccc(C(=O)N2CCC3(CC2)NC(=O)c2ccc(F)cc2N3C)c(OC)c1	7.7
COc1ccc2nc(Cn3ccnc3-c3cnc(N4CCCC4)nc3)[nH]c2c1	8.2

By substructure, those above with an aryl methoxy group
SMILES	Tgondii IFNg
COc1ccc(CCN2C(=O)N(C)C(=O)C23CCN(Cc2ccccc2C(F)(F)F)CC3)cc1	-40.3
COc1ccc(N(C2CSC2)S(C)(=O)=O)cc1	33.4
CCS(=O)(=O)N1CC2(C1)CN(S(=O)(=O)c1cn(C)cn1)[C@H](CO)c1[nH]c3cc(OC)ccc3c12	58.4
COc1ccc(OC)c(CN2CCN(C3CCN(C(C)C)CC3)C(CCO)C2)c1 (stereo not given)	0.5
COc1ccc(C)cc1NC(=O)c1cncc(NS(=O)(=O)c2ccc(C)cc2C)c1	5.5
COc1ncccc1-c1cccc(-c2nnc(C)s2)c1	-94.4*
COc1cccc(-c2cc(C(=O)Nc3nc(-c4ccccn4)cs3)on2)c1	14.2
COc1ccc(Cl)cc1S(=O)(=O)Nc1ccc(-c2nc(-c3ccc(C)cc3C)co2)cc1	15.4
COc1ccc(C(=O)N2CCC3(CC2)NC(=O)c2ccc(F)cc2N3C)c(OC)c1	7.7
COc1ccc2nc(Cn3ccnc3-c3cnc(N4CCCC4)nc3)[nH]c2c1	8.2

Later entries.
SMILES	Tgondii IFNg
CO[C@@H]1CN(C)C(=O)c2cc(NC(=O)NC(C)C)ccc2OC[C@@H](C)N(C(=O)CN(C)C)C[C@@H]1C	48.3
CCCCN(Cc1ccccc1)C(=O)c1cc2cccnc2n(Cc2ccccc2)c1=O	-47.5
CC(=O)NCC1CCCN(Cc2cccc(Cn3cccn3)c2)C1 (stereo not given)	-6.5
O=S(=O)(c1ccc2c(c1)CCCC2)N1CCC2(CC1)NCCN=C2NCc1ccccc1	-25.0
Cc1ccc2c(c1)NC1(CCN(C(=O)c3ccccc3C)CC1)c1cccn1-2	17.4
CN(CC1CCCCO1)C(=O)CCNS(C)(=O)=O (stereo not given)	6.1
O=C(Nc1cccc2c1CCCC2)c1cccc(CN2CC[C@H](O)C2)c1	4.2
COc1ccccc1-c1n[nH]c(=O)n1CCC(=O)O	-45.5
CO[C@H]1CO[C@@]2(CCCN(C(=O)c3ccncn3)C2)C1	-0.2
CCOC(=O)CNC(c1ccccc1)c1cc(Br)ccc1NC(C)=O (stereo not given)	13.3
C[C@H](CO)N1C[C@H](C)[C@@H](CN(C)C(=O)Nc2cccc3ccccc23)OCCCC[C@H](C)Oc2ccc(NC(=O)CCC(F)(F)F)cc2C1=O	406.7
CCN(Cc1noc(C)n1)C(=O)C1(COC)CCC1	-3.2
CC[C@@H]1C[C@H](NC(=O)c2ccccc2)C[C@H](CCc2ccccc2)O1	2.8
O=S(=O)(c1ccc(Cl)cc1)N1CCN(c2nc3ccccc3s2)CC1	3.5
Cc1cccc(OCC(=O)Nc2ccc3oc(-c4cccnc4)nc3c2)c1	11.9
COc1cccc([C@@H]2CCCN(C(=O)c3ccc(-n4cnnc4)cc3)C2)c1	2.8
Cc1ccc(-c2cc(C(F)(F)F)nn2-c2nc(-c3ccccc3)cs2)cc1	-41.7
OC[C@@H]1[C@H](c2ccccc2)C2(CN(Cc3cccnc3)C2)N1Cc1ccncc1	-21.8
CN(C)C(=O)N1CCC2(CCC2NC(=O)c2cnccn2)CC1 (stereo not given)	3.4
Cc1cccnc1CN(C)C(=O)c1cccc(C#CC(C)(C)O)c1	0.3
Cc1cc(C)nc(N2CCC(n3nc(C)cc3C)CC2)n1	12.0
Cc1cccc(C(=O)N2CCC3(CC2)Nc2ccccc2-n2cccc23)c1	17.5
CC(=O)N1CCC2(CC1)OC(=O)C(C)=C2C(=O)NCc1ccc(Cl)cc1	92.9
CCC1CN(Cc2csc(C(=O)OC)c2)CCN1C(C)C (stereo not given)	7.8
O=c1[nH]c2cc3c(cc2cc1CN1CCC(F)(F)C1)CCC3	-61.9
(cont.)
SMILES	Tgondii IFNg
CSc1cccc(NC(=O)N2CCC3(CC2)Nc2ccccc2-n2cccc23)c1	485.6
CN1C(=O)c2cc(NC(=O)C3CCOCC3)ccc2OC[C@@H]2O[C@H](CC(=O)NCCc3ccncc3)CC[C@H]21	2.4
C=Cn1ncc(CN2CCN(C3CCCCC3)C(=O)C2)c1C	-23.0
COc1ccccc1CNC(=O)CN1CCC(CO)CC1	-0.9
Cc1ccc2c(c1C)-n1cccc1C1(CCN(C(=O)c3c(F)cccc3F)CC1)N2	35.1
Cc1cc(-c2cc(NCCO)nc3[nH]ccc23)nc(N2CCCCC2)n1	-31.6
C[C@@H]1COCn2nncc2CC[C@H](Cc2ccc(-c3ccccc3)cc2)C(=O)N1	-39.0
O=C(C1CCOCC1)N1C[C@H]2[C@@H](c3ccccc31)[C@H](CO)N2C(=O)Nc1ccccc1F	-5.0
Cc1ccc(F)c(NC(=O)CCC(=O)NC[C@H]2C[C@H]3C=C[C@H]2C32CC2)c1	11.0
COc1ccc(C(N)=O)cc1-c1ccc(NC(C)=O)cc1	4.3
C[C@@H]1CN([C@H](C)CO)C(=O)CCCn2nncc2CO[C@@H]1CN(C)Cc1ccc2cccnc2c1	-14.0
COc1ccc(S(=O)(=O)c2ccc(NCCc3c[nH]c4ccc(OC)cc34)nn2)cc1	-49.7
CCS(=O)(=O)NCC[C@H]1CC[C@@H](NC(=O)Nc2cc(Cl)cc(Cl)c2)[C@@H](CO)O1	-29.5
Cc1cc(C)c2c(NCc3ccc(C)o3)nn(C(=O)c3ccno3)c2n1	20.4
C=CCC(=O)N(CC#Cc1ccccc1)CCC	-7.7
COc1c(Cl)cc(Cl)cc1C(=O)N1CC[C@H](O)[C@@H](O)C1	4.9
CCN(CC)C(=O)c1ccc(/C=C/c2ccccc2)o1	-5.4
CNc1ncccc1CN1CCc2nc(N)c(C(=O)NCc3cccc(OC)c3)cc2C1	-53.3
CCc1cn[nH]c1C1CCN(C(=O)C(O)c2ccccc2Cl)CC1 (stereo not given)	-45.4
CN1C(=O)c2cc(NC(=O)Cc3cccs3)ccc2OC[C@@H]2O[C@@H](CC(=O)NCC3CCCCC3)CC[C@H]21	-35.4
OCCN1CCN(CC/C=C2/c3ccccc3Sc3ccc(Cl)cc32)CC1	-74.0*
COc1ccc(NC(=O)Cn2ncc3c(N4CCC(C)CC4)ncnc32)cc1	54.7
Cc1ccc(-c2c(-c3nn(C)c4ncnc(N5CC[C@H](N6CCCCC6)C5)c34)cnn2C)cc1	-23.2
C[C@@H]1CN([C@@H](C)CO)C(=O)CCCn2nncc2CO[C@@H]1CN(C)C(=O)Nc1ccc(-c2cccs2)cc1	68.3
CO[C@@H]1CN(C)C(=O)c2cc(NC(=O)NC(C)C)ccc2OC[C@@H](C)N(Cc2ccccc2)C[C@@H]1C	-42.3
The list goes on.
SMILES	Tgondii IFNg
Cc1cc(C)c2[nH]c(=O)c(-c3nccn3CCc3cn[nH]c3)cc2c1	-1.3
COCC1CN(C(=O)CCc2c[nH]c3ccccc23)CC12CCOCC2 (stereo not given)	-1.5
CCOc1ccccc1NC(=O)c1nnn(Cc2nc(-c3ccc(OC)cc3OC)oc2C)c1C	-68.1
O=C([C@H]1CCC[C@]12CCN(Cc1ccccc1F)C2)N1CCOCC1	-1.9
CNC(=O)[C@H]1C[C@@H]2CN(CC3CCOCC3)C[C@@H]2N1C	-1.4
O=C(CCCn1cnc2ccccc2c1=O)N[C@@H]1CNC[C@H]1O	3.4
C[C@@H]1CN([C@@H](C)CO)C(=O)c2cccc(NC(=O)c3ccc(-c4nccs4)cc3)c2O[C@@H]1CN(C)C(=O)Nc1ccc(C(F)(F)F)cc1	-44.1
CNC(=O)Cc1ccc(-c2cc(OC)ccc2F)cc1	73.2
CO[C@H]1CN(C)C(=O)c2cc(NC(=O)CC(F)(F)F)ccc2OC[C@H](C)N(CC2CC2)C[C@H]1C	-18.2
CC(=O)O[C@H]1C[C@@H](O)C(C)(C)C2C[C@@H](OC(C)=O)[C@]3(C)C(CC[C@@]4(C)[C@H](c5ccoc5)OC(=O)C5OC543)[C@]21C (stereo not given in full)	17.9
Cc1ccc(C(N)=O)cc1/C=C/c1ccccc1	-17.6
C=CC[C@@H]1CC=C[C@@H](C)N1C(=O)CC1(c2cccc(C(F)(F)F)c2)CC(=O)N(C2CC2)C1=O (stereo not given in full)	25.9
CC(C)(NC(=O)c1cccs1)C(=O)NCc1csc(N)n1	83.5
COc1ccc(S(=O)(=O)N(C)C[C@@H]2Oc3ccc(NC(=O)Nc4ccc(C(F)(F)F)cc4)cc3C(=O)N([C@@H](C)CO)C[C@@H]2C)cc1	-25.3
Cc1ocnc1C(=O)N1CCC(N2CCCC(C(=O)N3CCOCC3)C2)CC1 (stereo not given)	-26.6
CCc1ncc(C(=O)NCCN2CCCOC2=O)cn1	-0.9
COCCN1CCOCC2(CCC(CNC(=O)c3ccnnc3)O2)C1 (stereo not given)	-7.1
CCCCOc1ccc(C(C)=O)cc1Cc1c(O)nc(SC)[nH]c1=O	-3.3

An excerpt of these results, as comma-separated lines:
canonical_smiles,Tgondii IFNg
CNC(=O)Cc1ccc(-c2cc(OC)ccc2F)cc1,73.2
CO[C@H]1CN(C)C(=O)c2cc(NC(=O)CC(F)(F)F)ccc2OC[C@H](C)N(CC2CC2)C[C@H]1C,-18.2
CC(=O)O[C@H]1C[C@@H](O)C(C)(C)C2C[C@@H](OC(C)=O)[C@]3(C)C(CC[C@@]4(C)[C@H](c5ccoc5)OC(=O)C5OC543)[C@]21C (stereo not given in full),17.9
